Source: PubChem
PhoP inhibition = inhibitors of PhoP regulon expression, primary screen, Salmonella Typhimurium, GFP reporter (AID 1863) | inhibition, % at 50 µM; hits with a dose series show IC50 in µM | 300,000 compounds, 0.16% hits | S. Typhimurium PhoP-regulated promoter GFP reporter, 4 h; higher % means a stronger effect;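 active means inhibition over 29.93%, a cutoff 3 SD above the screen mean, later confirmed by dose response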;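 further: 0% = low Mg2+ inducing control and 100% = high Mg2+ repressing control; strong numbers were not always called active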
GPR55 LPI antagonism = GPR55 antagonists blocking LPI-driven arrestin recruitment, primary screen, imaging, U2OS, beta-arrestin-GFP, LPI agonist (AID 2013). U2OS GPR55 beta-arrestin-GFP translocation imaging, LPI antagonism; higher % means a stronger effect. inhibition, % at 10 µM, or IC50 in µM where a hit was titrated. 290,000 compounds, 0.13% hits;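 active means spots per cell inhibited over 60%, with over 100 cells counted and total cytoplasm intensity under 500,000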;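 further: U2OS cells stably carrying GPR55 and arrestin-GFP stimulated by 5 µM LPI near EC80; imaged beta-arrestin-GFP aggregate spots per cell after agonist stimulation; plate controls were LPI-stimulated DMSO wells for no effect and DMSO wells without LPI for full effect; some results filed as inactive read as strong as hits; confirmed hits need IC50 under 10 µM and bright autofluorescent wells are also inconclusive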
GPR35 arrestin U2OS = GPR35 antagonists blocking zaprinast-driven arrestin recruitment, primary screen, imaging, U2OS, beta-arrestin-GFP, zaprinast agonist (AID 2058); 290,000 compounds, 0.052% hits; one-dose inhibition, % at 10 µM; IC50 in µM for titrated hits; U2OS GPR35 beta-arrestin-GFP translocation imaging, zaprinast antagonism; higher % means a stronger effect;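 active means inhibition of at least 50% with at least 30 cells and total cytoplasm GFP at most 10,000,000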
GPR55 beta-arrestin = GPR55 agonists via beta-arrestin recruitment, primary screen, imaging, U2OS cells, beta-arrestin-GFP redistribution (AID 1961); one-dose activation, % at 10 µM; EC50 in µM for titrated hits; U2OS GPR55 beta-arrestin-GFP redistribution imaging; higher % means a stronger effect; 290,000 compounds, 0.048% hits;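 active means activation above 40% with more than 50 cells counted in the well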;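 further: U2OS osteosarcoma cells stably expressing GPR55 and beta-arrestin-GFP; plate controls were DMSO negative control for no effect and LPI positive control for full effect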
T cell HTS = T cell immune modulators affecting CD8 T cell-vesicle binding. 2C CD8+ T cell-vesicle binding, flow cytometry; hits give low values. calls only at 7 µM. 330,000 compounds, 0.068% hits. AID 2052;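 active means response, share of CD8 T cells binding vesicles, and their 90th percentile fluorescence all below set limits, cut at about 80% in these data, passing the limit was not always enough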
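Test system: purified 2C TCR transgenic mouse naive CD8+ T cells. Probe or stimulus: QL9-peptide-loaded Drosophila micro-vesicles bearing Ld, ICAM-1 and B7-1. Incubation: binding step 1.5 h, 37 °C, antibody labelling 20 min, ice. Measured by: flow cytometry of vesicle-bound cells.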
KOR beta-arrestin = KOR agonists, beta-arrestin recruitment, primary screen, cell-based, luminescence, uHTS (AID 1777); KOR beta-arrestin recruitment, luminescence; higher % means a stronger effect; one-dose activation, % at 10 µM; EC50 in µM for titrated hits; 280,000 compounds, 0.02% hits; in the data active means activation above about 50%, passing the limit was not always enough; further: a part of the inactive calls stands beside numbers as strong as those of hits
West Nile antiviral = inhibition of WNV-induced cytopathic effect – cell-based, CPE readout (AID 1621); West Nile virus-infected cells, CPE inhibition; higher % means a stronger effect; CPE inhibition, % at 10 µM, or IC50 in µM where a hit was titrated; 290,000 compounds, 0.02% hits; in the data active means a potency from the dose series; further: strong numbers were not always called active
NTR1 agonist = agonists of NTR1, primary screen, imaging, U2OS cells, beta-arrestin-GFP, high content (AID 493036); 330,000 compounds, 0.17% hits; P30989; NTR1-U2OS beta-arrestin-GFP spot imaging, agonist mode; activation, % at 20 µM;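 active means activation at or above 40% of the spot to cytoplasm intensity ratio, with at least 20 cells analyzed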;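 further: 0% = DMSO without peptide and 100% = 100 nM NTR1 peptide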
Target sequence (P30989 whole entry, looked up): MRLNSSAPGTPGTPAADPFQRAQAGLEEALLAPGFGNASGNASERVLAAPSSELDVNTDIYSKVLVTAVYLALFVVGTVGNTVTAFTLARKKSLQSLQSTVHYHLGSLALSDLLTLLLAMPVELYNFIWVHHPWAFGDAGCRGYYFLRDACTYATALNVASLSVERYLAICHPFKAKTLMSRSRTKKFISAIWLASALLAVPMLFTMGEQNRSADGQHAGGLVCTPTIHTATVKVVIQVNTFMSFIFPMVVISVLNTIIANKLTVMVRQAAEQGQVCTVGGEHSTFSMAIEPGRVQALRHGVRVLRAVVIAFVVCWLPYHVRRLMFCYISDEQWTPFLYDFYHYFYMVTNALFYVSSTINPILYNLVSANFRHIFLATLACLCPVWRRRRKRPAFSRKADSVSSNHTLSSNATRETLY
T cell HTS vesicle-bound % = also measured in T cell HTS; calls as there; double positive events, %; measured here: CD8+ vesicle-bound cell fraction;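 binding gate set so that unloaded-vesicle control wells show 10% double positive cells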
NTR1 agonist cell count 20 µM = also measured in NTR1 agonist; calls as there; cell count; measured here: cell count, cytotoxicity flag
Numbers without * were called inactive; i = inactive; / = not tested or not shown; & = joins results of further samples. A portion of the library, so the mix of outcomes need not match the whole.

SMILES	PhoP inhibition	GPR55 LPI antagonism	GPR35 arrestin U2OS	GPR55 beta-arrestin	T cell HTS	T cell HTS vesicle-bound %	KOR beta-arrestin	West Nile antiviral	NTR1 agonist	NTR1 agonist cell count 20 µM
CCn1c(NCc2cc(Br)ccc2NS(=O)(=O)c2ccc(C)cc2)nc2ccccc21	8%	27%	7%	-0.1%	i	57	-0.7%	-0.9%	4.5	49
CC(=O)OCP(C)(=O)COC(C)=O	1%	30%	10%	0.0%	i	46	-2.9%	0.3%	-1.0	53
O=S(=O)(c1cccc2nsnc12)N1CCN(c2ncccn2)CC1	-4%	0%	-6%	-0.2%	i	35	-1.6%	-0.5%	0.9	55
C=C(C)C1Cc2nc(N)nc(C)c2C1 (configuration not stated)	-2%	6%	16%	0.2%	i	27	1.1%	0.1%	-0.6	88
Cc1ccc(C(=O)C(OC(=O)CNC(=O)c2ccc(Cl)cc2)c2ccccc2)cc1 (configuration not stated)	0%	29%	13%	-0.1%	i	35	4.1%	0.8%	-4.1	83
CCOc1cc(/C=N/O)ccc1OS(=O)(=O)c1ccc(C)cc1	-8%	-6%	23%	0.2%	i	33	-1.0%	1.0%	-0.7	47
O=C(O)CN=C1NC2(CCCC2)Cc2ccccc21	-6%	17%	7%	-0.1%	i	43	-0.6%	0.4%	0.7	85
CCn1c(CC(=O)Nc2ccc(C)c(Cl)c2)nnc1SCc1ccc(Cl)c(Cl)c1	-2%	1%	3%	-0.1%	i	18	10%	-0.7%	-0.8	56
COc1cccc(Nc2ncc(C(=O)O)c3ccccc23)c1	-10%	24%	-5%	0.1%	i	10	1.4%	1.0%	1.7	61
Cc1cc(C)nc(/N=C(\N)Nc2ccc(F)c([N+](=O)[O-])c2)n1	15%	16%	5%	0.2%	i	41	5.8%	0.9%	-1.8	114
Cc1ccc(CNC(=O)CCNC(=O)c2ccco2)cc1	6%	21%	8%	-0.1%	i	19	-0.6%	0.6%	-0.9	29
O=C(NC(=S)Nc1ccc(N2CCCCC2)c(Cl)c1)c1ccc2c(c1)OCCO2	-9%	2%	-1%	-0.1%	i	19	2.5%	/	2.9	86
CCCOc1cccc(-c2cc(-c3n[nH]c(=S)n3CC)c3ccccc3n2)c1	18%	50%	-12%	0.2%	i	37	2.9%	0.6%	19	64
CCCSc1nc(SCC(=O)NCc2ccccc2)c2c3c(sc2n1)COC(C)(C)C3	0%	10%	5%	0.3%	i	36	1.4%	-1.4%	11	84
COc1cc(C2/C(=C(/O)c3ccc(F)cc3)C(=O)C(=O)N2CCCC(=O)O)ccc1O (configuration not stated)	1%	9%	5%	0.0%	i	60	3.2%	0.0%	-1.6	70
CCCCCn1nc(-c2ccccc2)c2nc3ccccc3nc21	-18%	7%	11%	31%	i	20	2.8%	0.0%	3.2	98
Cc1cc(=O)oc2cc(NC(=O)CCC(=O)O)ccc12	-4%	26%	16%	-0.1%	i	11	3.3%	0.5%	0.8	68
Cc1ccc(SCc2nc(-c3cccnc3)no2)cc1	10%	-8%	17%	-0.1%	i	56	7.6%	0.0%	0.5	50
O=C(Nc1ccc(Cl)cc1)OCc1cn(-c2ccc(Cl)cc2)nn1	-2%	8%	6%	0.0%	i	53	-3.0%	0.2%	-0.6	77
O=C(NCc1ccccc1)c1cnc2n(c1=O)CCS2	6%	6%	-2%	0.7%	i	58	1.3%	-0.5%	-6.0	86

12 structures already listed, arranged by molar mass, smallest number first:
SMILES	PhoP inhibition	GPR55 LPI antagonism	GPR35 arrestin U2OS	GPR55 beta-arrestin	T cell HTS	T cell HTS vesicle-bound %	KOR beta-arrestin	West Nile antiviral	NTR1 agonist	NTR1 agonist cell count 20 µM
O=C(O)CN=C1NC2(CCCC2)Cc2ccccc21	-6%	17%	7%	-0.1%	i	43	-0.6%	0.4%	0.7	85
Cc1cc(=O)oc2cc(NC(=O)CCC(=O)O)ccc12	-4%	26%	16%	-0.1%	i	11	3.3%	0.5%	0.8	68
Cc1ccc(SCc2nc(-c3cccnc3)no2)cc1	10%	-8%	17%	-0.1%	i	56	7.6%	0.0%	0.5	50
Cc1ccc(CNC(=O)CCNC(=O)c2ccco2)cc1	6%	21%	8%	-0.1%	i	19	-0.6%	0.6%	-0.9	29
COc1cccc(Nc2ncc(C(=O)O)c3ccccc23)c1	-10%	24%	-5%	0.1%	i	10	1.4%	1.0%	1.7	61
CCCCCn1nc(-c2ccccc2)c2nc3ccccc3nc21	-18%	7%	11%	31%	i	20	2.8%	0.0%	3.2	98
CCOc1cc(/C=N/O)ccc1OS(=O)(=O)c1ccc(C)cc1	-8%	-6%	23%	0.2%	i	33	-1.0%	1.0%	-0.7	47
O=C(Nc1ccc(Cl)cc1)OCc1cn(-c2ccc(Cl)cc2)nn1	-2%	8%	6%	0.0%	i	53	-3.0%	0.2%	-0.6	77
CCCOc1cccc(-c2cc(-c3n[nH]c(=S)n3CC)c3ccccc3n2)c1	18%	50%	-12%	0.2%	i	37	2.9%	0.6%	19	64
O=C(NC(=S)Nc1ccc(N2CCCCC2)c(Cl)c1)c1ccc2c(c1)OCCO2	-9%	2%	-1%	-0.1%	i	19	2.5%	/	2.9	86
CCn1c(CC(=O)Nc2ccc(C)c(Cl)c2)nnc1SCc1ccc(Cl)c(Cl)c1	-2%	1%	3%	-0.1%	i	18	10%	-0.7%	-0.8	56
CCCSc1nc(SCC(=O)NCc2ccccc2)c2c3c(sc2n1)COC(C)(C)C3	0%	10%	5%	0.3%	i	36	1.4%	-1.4%	11	84

Carrying on.
SMILES	PhoP inhibition	GPR55 LPI antagonism	GPR35 arrestin U2OS	GPR55 beta-arrestin	T cell HTS	T cell HTS vesicle-bound %	KOR beta-arrestin	West Nile antiviral	NTR1 agonist	NTR1 agonist cell count 20 µM
CC1(C)CC(=O)C=C(NCc2ccc(Cl)c(Cl)c2)C1	-1%	1%	-9%	-0.1%	i	50	16%	-0.6%	-0.6	34
Cc1cccc(Cn2cnc3c(nnn3Cc3ccc(Cl)cc3)c2=O)c1	1%	-4%	11%	-0.1%	i	49	-0.5%	-1.3%	2.9	55
Cc1oc(-c2cccs2)nc1CS(=O)CC(=O)NCCCOC(C)C (configuration not stated)	-4%	16%	-6%	0.3%	i	47	-0.1%	-0.1%	-0.2	68
Cc1cccc(Nc2nnc(-c3ccc(C(=O)N4C[C@H]5C[C@H](C4)c4cccc(=O)n4C5)cc3)c3ccccc23)c1	3%	-15%	6%	1.1%	i	32	-1.0%	1.0%	1.8	64
CCCCNc1cc(=O)n(C)c(=O)n1C	4%	-2%	-11%	-0.1%	i	35	-2.3%	0.0%	2.3	56
CCCc1noc2c1/C(=N\O)CCC2	-2%	-3%	-12%	0.3%	i	7	3.6%	0.7%	0.3	75
Cc1ccc(C(=O)Nc2ccccc2Oc2ccccc2)cc1[N+](=O)[O-]	10%	11%	-6%	0.0%	i	16	-0.3%	/	23	86
COc1ccc(CCNc2cc(N3CCN(C(=O)c4ccccc4F)CC3)ccc2[N+](=O)[O-])cc1OC	7%	-4%	-10%	-2.3%	i	40	4.2%	/	5.1	35
CCCCCn1c(SCC(=O)c2ccccc2)nc2cc(C(=O)NCc3ccco3)ccc2c1=O	3%	6%	-4%	-0.1%	/	/	0.6%	2.3%	/	/
CCSc1nc2nc(C)cc(C)n2n1	2%	-7%	4%	0.2%	i	25	3.7%	-0.4%	0.6	70
CCOc1cc(/C=C2/C(=O)N(c3ccccc3)N=C2C)ccc1OC(=O)c1cccs1	1%	3%	5%	0.5%	i	43	5.6%	-0.5%	16	54
O=C(Cc1cccs1)NNC(=S)NCc1ccc(Cl)cc1	0%	11%	-8%	0.2%	i	56	-2.5%	0.1%	-0.2	48
CCCCn1c(SC(C)C(=O)c2ccc(OC)cc2)nc2cc(S(N)(=O)=O)ccc21 (configuration not stated)	0%	2%	3%	-0.1%	i	39	4.9%	-0.4%	2.1	47
CCOc1cc(C(=O)N2CCN=C2SC)cc(OCC)c1OCC	-6%	17%	9%	-0.1%	i	28	-1.1%	-0.1%	2.2	73
CCCCn1nc2cc(C(=O)NCc3ccc(C(F)(F)F)cc3C(F)(F)F)ccc2c1OCC	9%	7%	6%	0.0%	i	32	-1.7%	-0.9%	2.7	86
Cc1ccc(S(=O)(=O)N2CCN(C(=O)CN3CCOCC3)C2)cc1	-8%	6%	8%	-0.1%	i	61	9.9%	0.2%	-1.0	44
COc1ccc(NC(=O)CSc2ncnc3c2cnn3CCc2ccccc2)cc1	1%	30%	10%	-0.1%	i	31	1.7%	0.1%	-0.2	57
O=C(CSc1nnc2c3ccccc3c3ccccc3c2n1)Nc1ccccc1F	-7%	17%	-6%	-0.1%	i	5	-4.7%	/	2.2	45
COc1ccc(CCNC(=O)c2cc(-c3cc(Cl)cc(Cl)c3)oc2C)cc1	-10%	9%	7%	0.0%	i	50	4.3%	1.2%	9.9	56
CC(=O)NC1(C(F)(F)F)NC(=O)N(C2CCCCC2)C1=O (configuration not stated)	25%	13%	17%	-0.1%	i	42	0.8%	0.2%	-1.1	89
c1ccc(CNc2ncnc3nc[nH]c23)cc1	-11%&2%	-15%	-7%	-0.2%	i	25	-6.7%	-0.1%	-0.7	44
CCc1nc(SCC(=O)c2cccs2)c2oc3ccccc3c2n1	-10%	/	16%	0.3%	i	59	5.5%	-0.2%	13	81
C[N+]1(CC(=O)Nc2ccc(F)cc2)CCN(C(=O)c2ccco2)CC1	5%	14%	1%	-0.1%	i	12	1.2%	1.7%	-0.4	58
N=C1SCC(=O)N1c1ncc(Cc2cccc(Cl)c2)s1	-13%	99%*	-10%	0.2%	/	/	/	0.3%	/	/
CCCc1nnc(NC(=O)C(CC)OC(=O)c2cc(C)nc3ccccc23)s1 (configuration not stated)	-12%	-11%	11%	0.2%	i	17	5.0%	0.7%	1.3	92
COc1cc2c(cc1OC)C(C(=O)NCc1cccnc1)C(c1cccnc1)N(C)C2=O (configuration not stated)	-2%	16%	-6%	-0.1%	i	41	1.2%	0.3%	-1.1	102
OCC1N=C(c2ccccn2)OC1c1ccccc1 (configuration not stated)	1%	9%	-5%	-0.1%	i	62	1.7%	0.3%	0.2	65
COC(=O)CSc1nc(C)cc(C(F)(F)F)c1C#N	15%	/	2%	0.0%	i	57	0.9%	0.3%	-1.6	45
COc1cc(CNCCN2CCOCC2)ccc1OCc1ccc(Cl)cc1Cl	0%	-2%	-1%	-0.1%	i	28	2.7%	0.7%	-0.4	52
CCOc1cc(C)c(Cl)cc1S(=O)(=O)N(C)C	12%	-2%	11%	-0.1%	i	41	-4.7%	0.3%	2.1	48
